Compound activity as filed in PubChem.
CBX7 inh = inhibitors of human CBX7 binding to H3K27me3 peptide; O95931; AlphaScreen His6-CBX7 / biotin-H3K27me3 peptide binding; hits give low values; normalised signal (fraction of DMSO) (no concentration beside the values); 66,000 tested, 1.1% active; AID 1224903; in the data active = normalised signal below about 0.5;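 note: 100 nL library stock added to about 20 µL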
Target sequence (O95931 whole entry, looked up): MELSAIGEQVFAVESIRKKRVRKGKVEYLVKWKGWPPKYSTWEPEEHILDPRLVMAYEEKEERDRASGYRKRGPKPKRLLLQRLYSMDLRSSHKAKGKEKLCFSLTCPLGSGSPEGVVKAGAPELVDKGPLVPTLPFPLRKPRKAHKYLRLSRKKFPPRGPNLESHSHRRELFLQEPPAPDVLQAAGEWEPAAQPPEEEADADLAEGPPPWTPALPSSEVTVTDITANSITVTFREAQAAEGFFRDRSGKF
CBX7 inh z-score = second read-out of CBX7 inh, no call of its own (marks repeat the call); z-score; measured here: z-score of CBX7 signal; some inactives read as strong as hits; reference of the scale not given here;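 same signal on another scale; lower means less binding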
The depositor's hits bear a star.

Screening Cc1ccccc1OCC(=O)N(Cc1ccc(C(C)C)cc1)C1CCS(=O)(=O)C1 (configuration not stated) returned CBX7 inh 0.9 and CBX7 inh z-score -1.3.
`CC(C)N1C(=O)CCC1C(=O)N1CCN(c2ccccn2)CC1` (configuration not stated) gave CBX7 inh 1 and CBX7 inh z-score 0.7.
For Cc1ccccc1Cn1nc(C)c(NC(=O)c2cc(-c3ccc4c(c3)OCO4)on2)c1C the results were CBX7 inh 1.2 and CBX7 inh z-score 1.8.
COc1ccccc1NC(=O)c1cc2c(n(-c3ccccc3)c1=O)CCCC2=O was read as CBX7 inh 1.6 and CBX7 inh z-score 2.6.
`CCN1C(=O)c2ccccc2S(=O)(=O)c2ccc(C(=O)NCc3ccc(F)cc3)cc21` gave CBX7 inh 1 and CBX7 inh z-score 1.1.
Cc1cccc(C(=O)N2CC(=O)Nc3ccc(F)cc3C2c2ccc(F)cc2)c1 (configuration not stated) was read as CBX7 inh 0.95 and CBX7 inh z-score -0.1.
`CN(C(=O)c1ccc2c(c1)N(Cc1ccc(F)cc1)C(=O)c1ccccc1S2=O)C1CCCCC1` (configuration not stated) gave CBX7 inh 0.92 and CBX7 inh z-score -3.7.
For Cc1ccc(-n2c(Cc3cccn3C)nnc2SCC(=O)Nc2ccc(Cl)cc2)cc1 the results were CBX7 inh 0.91 and CBX7 inh z-score -2.2.
Screening CC1(C)CC(=O)C2=C(C1)NC(=O)CC2c1cccc(Oc2ccccc2)c1 (configuration not stated) returned CBX7 inh 0.95 and CBX7 inh z-score -0.63.
For COCCNC(=O)CCN1C(=O)C(C)Oc2ccc(C)cc21 (configuration not stated) the results were CBX7 inh 0.97 and CBX7 inh z-score -0.46.
`CCC(=O)N1CCc2cc(S(=O)(=O)NCCC(=O)Nc3cccc(F)c3)ccc21` gave CBX7 inh 1 and CBX7 inh z-score 1.8.
`C=C(C)Cn1c(CCNC(=O)c2cccs2)nc2ccccc21` gave CBX7 inh 0.97 and CBX7 inh z-score -1.
For Cc1noc(NS(=O)(=O)c2ccc(NC(=O)c3cnc4scc(C)n4c3=O)cc2)c1C the results were CBX7 inh 1.1 and CBX7 inh z-score 1.6.
`Cc1ccc(-c2noc(-c3cc(-c4ccncc4)nc4ccccc34)n2)cc1` gave CBX7 inh 0.96 and CBX7 inh z-score -0.037.
Screening COCCCNC(=O)CSc1nc(-c2cccc(OC)c2)[nH]c1-c1ccccc1 returned CBX7 inh 0.97 and CBX7 inh z-score -0.49.
Screening COc1ccc(CCNC(=O)c2c(-c3ccccc3Cl)noc2C)cc1OC returned CBX7 inh 1 and CBX7 inh z-score 0.058.
CCOC(=O)c1cccc(NS(=O)(=O)c2ccc3c(c2)CCN3C(C)=O)c1 was read as CBX7 inh 1.4 and CBX7 inh z-score 4.1.
For O=C(NCc1ccccc1Br)C1CCN(C(=O)c2sccc2-n2cccc2)CC1 the results were CBX7 inh 0.99 and CBX7 inh z-score -0.39.
Screening CSc1nc2ncc(C(=O)O)c(=O)n2[nH]1 returned CBX7 inh 1.1 and CBX7 inh z-score 1.5.
Screening COc1ccc(CNC(=O)CCNS(=O)(=O)c2ccc3c(c2)CCC(=O)N3)cc1 returned CBX7 inh 1 and CBX7 inh z-score 1.1.
Screening O=C(C1CCN(S(=O)(=O)c2cccnc2)CC1)N1CCN(c2ccc(Cl)cc2)CC1 returned CBX7 inh 1.1 and CBX7 inh z-score 1.8.
Cc1cc(-c2ccccc2)n(-c2cc(Nc3ccc(C)c(Cl)c3)ncn2)n1 was read as CBX7 inh 0.71 and CBX7 inh z-score -1.8.
`COc1cccc(-c2nc(-c3nonc3N)no2)c1` gave CBX7 inh 0.96 and CBX7 inh z-score -1.1.
Cc1ccc(OCC(=O)Nc2ccc3nn(-c4cccc(Cl)c4)nc3c2)c(C)c1 was read as CBX7 inh 1.2 and CBX7 inh z-score 2.1.
Screening O=C(c1ccc2c(c1)N(Cc1ccc(F)cc1)C(=O)c1ccccc1S2=O)N1CCCC1 (configuration not stated) returned CBX7 inh 0.94 and CBX7 inh z-score -0.8.
CC(C)Cc1nnc(NC(=O)Nc2ccc(Br)cc2)s1 was read as CBX7 inh 1.1 and CBX7 inh z-score 0.77.
`CCC(C)NC(=O)c1ccc2c(c1)N(Cc1ccccc1F)C(=O)c1ccccc1S2(=O)=O` (configuration not stated) gave CBX7 inh 0.97 and CBX7 inh z-score -0.75.
For Cc1ccc(-c2nnc(Nc3ccc4c(c3)ncn4-c3ccc(C)cc3)c3ccccc23)cc1 the results were CBX7 inh 1.1 and CBX7 inh z-score 2.6.
For Oc1c(Br)cc(Br)cc1-c1nc2ccccc2s1 the results were CBX7 inh 0.96 and CBX7 inh z-score -0.86.
For COc1ccc(C)cc1-n1c(C)nc2cc(C(=O)NCC3CCCO3)ccc21 (configuration not stated) the results were CBX7 inh 0.98 and CBX7 inh z-score -1.1.
COc1ccccc1NC(=O)Cn1cc(S(=O)(=O)c2ccccc2)c(=O)c2cc(C)ccc21 was read as CBX7 inh 0.92 and CBX7 inh z-score -1.1.
Screening O=C(c1ccc2c(c1)N(Cc1ccccc1F)C(=O)c1ccccc1S2)N1CCCC1 returned CBX7 inh 1 and CBX7 inh z-score -0.028.
For CC(=O)N1CCc2cc(S(=O)(=O)NC(Cc3ccccc3)C(=O)N3CCCC3)ccc21 (configuration not stated) the results were CBX7 inh 0.91 and CBX7 inh z-score -1.6.
Screening CCOC(=O)CNC(=O)c1nn(-c2ccc(OC)cc2OC)c(=O)c2ccccc12 returned CBX7 inh 1 and CBX7 inh z-score 0.27.
For COc1cccc(NC(=O)C(Cc2ccccc2)NS(=O)(=O)c2ccc3c(c2)CCN3C(C)=O)c1 (configuration not stated) the results were CBX7 inh 1 and CBX7 inh z-score 1.
`COC(=O)c1ccc2c(c1)N(Cc1ccccc1Cl)C(=O)CS2(=O)=O` gave CBX7 inh 1 and CBX7 inh z-score 0.58.
Screening Cc1cc2cc(CCNC(=O)c3c(F)cccc3Cl)c(=O)[nH]c2cc1C returned CBX7 inh 0.99 and CBX7 inh z-score -0.58.
Screening COc1ccccc1NC(=O)CCn1nc(-c2ccccc2)c2ccccc2c1=O returned CBX7 inh 1 and CBX7 inh z-score 0.53.
CCOC(=O)c1cccc(Nc2c3c(nc4ccccc24)CCC3)c1 was read as CBX7 inh 0.86 and CBX7 inh z-score -2.7.
Screening Cc1ccc(S(=O)(=O)N2CC=C(C(=O)NCc3ccccc3Cl)CC2)cc1 returned CBX7 inh 0.99 and CBX7 inh z-score -0.14.
`CC(C)CCNC(=O)c1ccc2c(c1)N(Cc1ccccc1F)C(=O)c1ccccc1S2=O` (configuration not stated) gave CBX7 inh 0.94 and CBX7 inh z-score -0.85.
`CC1CCCN(CCCNC(=O)CN2N=C(c3ccc(Cl)cc3)CCC2=O)C1` (configuration not stated) gave CBX7 inh 1.1 and CBX7 inh z-score 1.9.
CN(C1CCCCC1)S(=O)(=O)c1ccc(C(=O)Nc2nc(-c3ccccn3)cs2)cc1 was read as CBX7 inh 0.89 and CBX7 inh z-score -3.7.
For O=C1CC(Cc2ccccc2)C(=O)N1c1ccccc1 (configuration not stated) the results were CBX7 inh 0.93 and CBX7 inh z-score -0.63.
O=C(NC1CCCCC1)C(c1ccc(Cl)cc1)N(CCO)Cc1ccccc1 (configuration not stated) was read as CBX7 inh 1 and CBX7 inh z-score 1.7.
COc1ccc(OC)c(-c2nnc(SCC(=O)Nc3cc(C)on3)o2)c1 was read as CBX7 inh 0.26* and CBX7 inh z-score -15*.
Clc1ccccc1CNc1nnc(Cc2ccncc2)c2ccccc12 was read as CBX7 inh 1 and CBX7 inh z-score 1.6.
For COc1cccc(-c2nc(S(=O)(=O)c3ccccc3)c(N(C)C)o2)c1 the results were CBX7 inh 0.94 and CBX7 inh z-score -1.6.
Screening Cc1c(Cl)cccc1NS(=O)(=O)c1ccc2[nH]cc(C(=O)N3CCOCC3)c(=O)c2c1 returned CBX7 inh 1.1 and CBX7 inh z-score 0.63.
Cc1ccn2c(NC(=O)C(C)C)c(-c3ccc(F)cc3)nc2c1 was read as CBX7 inh 1 and CBX7 inh z-score 0.0072.

Grouped by structure: the compounds so far with a thiophene ring, fused or not
`C=C(C)Cn1c(CCNC(=O)c2cccs2)nc2ccccc21` gave CBX7 inh 0.97 and CBX7 inh z-score -1.
For O=C(NCc1ccccc1Br)C1CCN(C(=O)c2sccc2-n2cccc2)CC1 the results were CBX7 inh 0.99 and CBX7 inh z-score -0.39.

Going on with the list.
For COCCN1Cc2cccc(C(=O)Nc3cc(OC)ccc3OC)c2C1=O the results were CBX7 inh 1 and CBX7 inh z-score 0.031.
For O=C(NCCN1CCN(Cc2ccccc2)CC1)Nc1ccccc1Cl the results were CBX7 inh 1.3 and CBX7 inh z-score 2.5.
`COc1ccc(-c2c(C)nn3c(N4CCN(Cc5ccccc5)CC4)cc(C)nc23)cc1OC` gave CBX7 inh 0.87 and CBX7 inh z-score -3.7.
For CCOc1ccc(CCNC(=O)CN2C(=O)C(CC)Oc3ccccc32)cc1OCC (configuration not stated) the results were CBX7 inh 1 and CBX7 inh z-score 0.67.
`CCc1ccc(C(=O)CC2(O)C(=O)N(CCCc3ccccc3)c3ccccc32)cc1` (configuration not stated) gave CBX7 inh 0.55 and CBX7 inh z-score -13.
Cc1cccc(CCNC(=O)Cc2c(C(=O)O)[nH]c3ccc(Cl)cc23)c1 was read as CBX7 inh 1.2 and CBX7 inh z-score 1.7.
Screening CC1=Nc2cc(C(=O)NCc3ccccn3)ccc2Sc2ccc(Cl)cc21 returned CBX7 inh 0.8 and CBX7 inh z-score -3.2.
`O=C(CSc1ncnc2nc[nH]c12)NCC1CCCO1` (configuration not stated) gave CBX7 inh 1.4 and CBX7 inh z-score 0.89.
`COc1ccccc1N1CCN(C2CC(=O)N(c3ccc(F)cc3)C2=O)CC1` (configuration not stated) gave CBX7 inh 1 and CBX7 inh z-score 0.8.
Screening COc1ccccc1NC(=O)COc1ccc(-c2nn(C)c(=O)c3ccccc23)cc1 returned CBX7 inh 0.94 and CBX7 inh z-score -2.9.
For CCn1cc(C(=O)N2c3ccc(F)cc3CCC2C)c(=O)c2ccc(C)nc21 (configuration not stated) the results were CBX7 inh 1.1 and CBX7 inh z-score 0.56.
CCCCN(CC)CCCNC(=O)C1CCN(c2nc3ccc(OC)cc3s2)CC1 was read as CBX7 inh 1.3 and CBX7 inh z-score 3.3.
COc1ccc(N2CCN(CCCNC(=O)C3(S(=O)(=O)c4ccc(Cl)cc4)CC3)CC2)cc1 was read as CBX7 inh 0.66 and CBX7 inh z-score -16.
For CC1(C(=O)Nc2cccnc2)CC2c3ccccc3C1c1ccccc12 (configuration not stated) the results were CBX7 inh 1.1 and CBX7 inh z-score 1.4.
`Cc1ccc2cc(CCNS(=O)(=O)c3ccc(F)cc3)c(=O)[nH]c2c1C` gave CBX7 inh 1 and CBX7 inh z-score 0.056.
O=C(Nc1ccc2oc(-c3cc(Br)ccc3Cl)nc2c1)c1ccccc1 was read as CBX7 inh 0.93 and CBX7 inh z-score -1.7.
For CCN(CC)CCOC(=O)c1ccc(NC(=O)Cn2ncc3c2-c2cc(C)ccc2OC3)cc1 the results were CBX7 inh 1 and CBX7 inh z-score -0.06.

Of the compounds above, these have fluorine:
`CCN1C(=O)c2ccccc2S(=O)(=O)c2ccc(C(=O)NCc3ccc(F)cc3)cc21` gave CBX7 inh 1 and CBX7 inh z-score 1.1.
Cc1cccc(C(=O)N2CC(=O)Nc3ccc(F)cc3C2c2ccc(F)cc2)c1 (configuration not stated) was read as CBX7 inh 0.95 and CBX7 inh z-score -0.1.
`CN(C(=O)c1ccc2c(c1)N(Cc1ccc(F)cc1)C(=O)c1ccccc1S2=O)C1CCCCC1` (configuration not stated) gave CBX7 inh 0.92 and CBX7 inh z-score -3.7.
`CCC(=O)N1CCc2cc(S(=O)(=O)NCCC(=O)Nc3cccc(F)c3)ccc21` gave CBX7 inh 1 and CBX7 inh z-score 1.8.
Screening O=C(c1ccc2c(c1)N(Cc1ccc(F)cc1)C(=O)c1ccccc1S2=O)N1CCCC1 (configuration not stated) returned CBX7 inh 0.94 and CBX7 inh z-score -0.8.
`CCC(C)NC(=O)c1ccc2c(c1)N(Cc1ccccc1F)C(=O)c1ccccc1S2(=O)=O` (configuration not stated) gave CBX7 inh 0.97 and CBX7 inh z-score -0.75.
Screening O=C(c1ccc2c(c1)N(Cc1ccccc1F)C(=O)c1ccccc1S2)N1CCCC1 returned CBX7 inh 1 and CBX7 inh z-score -0.028.
Screening Cc1cc2cc(CCNC(=O)c3c(F)cccc3Cl)c(=O)[nH]c2cc1C returned CBX7 inh 0.99 and CBX7 inh z-score -0.58.
`CC(C)CCNC(=O)c1ccc2c(c1)N(Cc1ccccc1F)C(=O)c1ccccc1S2=O` (configuration not stated) gave CBX7 inh 0.94 and CBX7 inh z-score -0.85.
Cc1ccn2c(NC(=O)C(C)C)c(-c3ccc(F)cc3)nc2c1 was read as CBX7 inh 1 and CBX7 inh z-score 0.0072.
`COc1ccccc1N1CCN(C2CC(=O)N(c3ccc(F)cc3)C2=O)CC1` (configuration not stated) gave CBX7 inh 1 and CBX7 inh z-score 0.8.
For CCn1cc(C(=O)N2c3ccc(F)cc3CCC2C)c(=O)c2ccc(C)nc21 (configuration not stated) the results were CBX7 inh 1.1 and CBX7 inh z-score 0.56.
`Cc1ccc2cc(CCNS(=O)(=O)c3ccc(F)cc3)c(=O)[nH]c2c1C` gave CBX7 inh 1 and CBX7 inh z-score 0.056.

The list is partial, so the mix of outcomes need not match the whole.
